# A1 apoptosis 2: A1 inhibitors via caspase activation, primary screen, cell-based, luminescence, HTS, two replicates; MEF A1-2A-BIM cells, caspase-Glo luminescence, 3 h; percent of clofoctol response, DMSO zero; caspase activation, % (test concentration not listed); 24,000 tested, under 10 active; in the data active = caspase activation above about 5.9%;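 also: wells of about 30 µL received 50 nL stock; the first replicate is given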
#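 System: mouse embryonic fibroblasts co-expressing A1 and BIM (A1-2A-BIM), primed for A1 dependence; amount: 2500 cells/well; doses: 50 nL pinned compound; schedule: cells settled overnight, compound exposure 3 h at 37 °C, 5% CO2; detection: Caspase-Glo 3/7 luminescence, 1 h at room temperature; read-out: Caspase-3/7 activation, seen as rise in luminescence signal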
# Numbers without * were called inactive. Some of the compounds tested; rates above refer to the full screens.
Compound | A1 apoptosis 2
C[C@H](CO)N1C[C@H](C)[C@H](CN(C)C(=O)Nc2ccc3c(c2)OCO3)Oc2ncc(C#Cc3ccccc3)cc2C1=O | 1.2
C[C@@H]1CN([C@@H](C)CO)C(=O)c2cccc(NC(=O)c3cnccn3)c2O[C@@H]1CN(C)Cc1ccc(Oc2ccccc2)cc1 | -0.2
COC(=O)CCCCCCC(=O)N/N=C/c1coc2ccccc2c1=O | 0.5
C[C@@H]1CN([C@@H](C)CO)C(=O)Cc2cc(NC(=O)Cc3ccccc3)ccc2O[C@@H]1CN(C)S(=O)(=O)c1cccs1 | 0.3
C[C@@H]1CN([C@H](C)CO)C(=O)c2cc(N(C)C)ccc2O[C@H]1CN(C)Cc1ccc(Cl)c(Cl)c1 | -0.2
CNC[C@@H]1Oc2ccc(NC(=O)C3CCCCC3)cc2CC(=O)N([C@@H](C)CO)C[C@@H]1C | -1.0
C[C@H](CO)N1C[C@H](C)[C@H](CN(C)Cc2ccc(C(=O)O)cc2)Oc2ccc(NC(=O)Cc3cn(C)c4ccccc34)cc2C1=O | -0.2
C[C@@H]1CCCCO[C@@H](CN(C)C(=O)CCC(F)(F)F)[C@@H](C)CN([C@@H](C)CO)C(=O)c2cc(NS(=O)(=O)c3cccs3)ccc2O1 | -0.9

# Remaining list, next part.
Compound | A1 apoptosis 2
C[C@@H]1CCCCO[C@@H](CN(C)S(=O)(=O)c2ccccc2)[C@@H](C)CN([C@@H](C)CO)C(=O)c2cc(NC(=O)NC3CCCCC3)ccc2O1 | 0.3
C[C@@H]1CN([C@H](C)CO)C(=O)c2cccc(NC(=O)Nc3ccc4c(c3)OCO4)c2O[C@@H]1CN(C)C(=O)NC1CCCCC1 | 0.3
Cc1noc(C)c1NC(=O)N(C)C[C@@H]1Oc2ccc(NC(=O)Cc3cn(C)c4ccccc34)cc2CC(=O)N([C@H](C)CO)C[C@H]1C | 0.0
C[C@H](CO)N1C[C@H](C)[C@@H](CN(C)Cc2ccc(C(=O)O)cc2)Oc2c(NC(=O)Nc3ccc(F)cc3)cccc2C1=O | 0.5
COc1ccc(CN(C)C[C@H]2Oc3ccc(NC(=O)C4CCCCC4)cc3CC(=O)N([C@H](C)CO)C[C@H]2C)cc1 | -0.6
O=C(O)CCCCCC(=O)N/N=C/c1cc(F)ccc1O | 0.2
Cc1cc(C(=O)Nc2cccc3c2O[C@@H](CN(C)Cc2ccc(Oc4ccccc4)cc2)[C@@H](C)CN([C@@H](C)CO)C3=O)n(C)n1 | 0.2
C[C@@H]1CN([C@@H](C)CO)C(=O)c2cccc(NC(=O)Nc3ccc4c(c3)OCO4)c2O[C@H]1CN(C)Cc1ccncc1 | -0.5

# Molecules listed so far containing fluorine, in the order listed:
Compound | A1 apoptosis 2
C[C@@H]1CCCCO[C@@H](CN(C)C(=O)CCC(F)(F)F)[C@@H](C)CN([C@@H](C)CO)C(=O)c2cc(NS(=O)(=O)c3cccs3)ccc2O1 | -0.9
C[C@H](CO)N1C[C@H](C)[C@@H](CN(C)Cc2ccc(C(=O)O)cc2)Oc2c(NC(=O)Nc3ccc(F)cc3)cccc2C1=O | 0.5
O=C(O)CCCCCC(=O)N/N=C/c1cc(F)ccc1O | 0.2

# Next section.
Compound | A1 apoptosis 2
CC(C)NC(=O)N(C)C[C@@H]1OCCCC[C@@H](C)Oc2ccc(NC(=O)Cc3ccccc3)cc2C(=O)N([C@@H](C)CO)C[C@H]1C | 0.1
COc1ccc(CN(C)C[C@H]2OCCCC[C@@H](C)Oc3ccc(NC(=O)Nc4ccc(OC)cc4)cc3C(=O)N([C@@H](C)CO)C[C@H]2C)cc1 | -0.4
C[C@H]1CN([C@@H](C)CO)C(=O)c2cccc(NC(=O)Nc3ccc4c(c3)OCO4)c2O[C@H]1CN(C)Cc1ccc(Oc2ccccc2)cc1 | -1.8
COc1ccc(NC(=O)N(C)C[C@H]2OCCCC[C@H](C)Oc3ccc(NC(=O)Nc4ccc5c(c4)OCO5)cc3C(=O)N([C@@H](C)CO)C[C@H]2C)cc1 | 0.1
C[C@H](CO)N1C[C@H](C)[C@H](CN(C)S(=O)(=O)c2cccc(F)c2)Oc2ncc(-c3cc4ccccc4o3)cc2C1=O | -1.2
C[C@@H]1CCCCO[C@@H](CN(C)C(=O)Nc2cccc3ccccc23)[C@H](C)CN([C@@H](C)CO)C(=O)c2cc(NS(=O)(=O)c3ccccc3)ccc2O1 | 0.3
C[C@H](CO)N1C[C@H](C)[C@@H](CN(C)Cc2ccc(Cl)c(Cl)c2)Oc2c(NC(=O)c3cnccn3)cccc2C1=O | 0.4
C[C@H](CO)N1C[C@H](C)[C@H](CN(C)Cc2ccc(Oc3ccccc3)cc2)Oc2ccc(NC(=O)Cn3cnnn3)cc2C1=O | 0.4

# Reprinted at random: 5 entries already listed, in no set order.
Compound | A1 apoptosis 2
COc1ccc(CN(C)C[C@H]2Oc3ccc(NC(=O)C4CCCCC4)cc3CC(=O)N([C@H](C)CO)C[C@H]2C)cc1 | -0.6
C[C@H]1CN([C@@H](C)CO)C(=O)c2cccc(NC(=O)Nc3ccc4c(c3)OCO4)c2O[C@H]1CN(C)Cc1ccc(Oc2ccccc2)cc1 | -1.8
C[C@H](CO)N1C[C@H](C)[C@H](CN(C)C(=O)Nc2ccc3c(c2)OCO3)Oc2ncc(C#Cc3ccccc3)cc2C1=O | 1.2
COC(=O)CCCCCCC(=O)N/N=C/c1coc2ccccc2c1=O | 0.5
COc1ccc(CN(C)C[C@H]2OCCCC[C@@H](C)Oc3ccc(NC(=O)Nc4ccc(OC)cc4)cc3C(=O)N([C@@H](C)CO)C[C@H]2C)cc1 | -0.4

# Carrying on.
Compound | A1 apoptosis 2
C[C@@H]1CN([C@@H](C)CO)C(=O)c2cc(NS(=O)(=O)c3ccccc3)ccc2O[C@H]1CN(C)C(=O)NC1CCCCC1 | 0.0
C[C@@H]1CN([C@@H](C)CO)C(=O)c2cccc(NS(=O)(=O)c3cccs3)c2O[C@@H]1CN(C)Cc1ccccc1 | 0.5
C[C@@H]1CN([C@@H](C)CO)C(=O)c2cc(NS(=O)(=O)c3cccs3)ccc2O[C@@H]1CN(C)Cc1ccc(C(=O)O)cc1 | 0.3
C[C@@H]1CCCCO[C@H](CN(C)C(=O)NC2CCCCC2)[C@@H](C)CN([C@H](C)CO)C(=O)c2cc(NS(=O)(=O)c3ccc(Cl)cc3)ccc2O1 | -1.1
C[C@H]1CCCCO[C@@H](CN(C)S(=O)(=O)c2cn(C)cn2)[C@@H](C)CN([C@@H](C)CO)C(=O)c2cc(NC(=O)CCC(F)(F)F)ccc2O1 | 0.2
Cc1cccc(S(=O)(=O)N(C)C[C@@H]2OCc3cnnn3CCCC(=O)N([C@H](C)CO)C[C@@H]2C)c1 | 1.3
O=C(C1=C[C@@H](c2ccc3c(c2)Cc2ccccc2-3)C[C@@H](OCCCCO)O1)N1CCN(Cc2ccc3c(c2)OCO3)CC1 | 0.3
C[C@H]1CN([C@@H](C)CO)C(=O)c2cc(NC(=O)C3CCCCC3)ccc2O[C@H]1CN(C)Cc1ccc(Cl)c(Cl)c1 | 0.0

# Other compounds follow:
Compound | A1 apoptosis 2
CNC[C@H]1OCCCC[C@@H](C)Oc2ccc(NC(=O)CCCN(C)C)cc2C(=O)N([C@H](C)CO)C[C@@H]1C | -0.2
C[C@@H]1CN([C@@H](C)CO)C(=O)c2cccc(NC(=O)c3ccncc3)c2O[C@@H]1CN(C)Cc1ccc2c(c1)OCO2 | 1.8
COc1ccc(S(=O)(=O)N(C)C[C@H]2Oc3c(NC(=O)c4cnccn4)cccc3C(=O)N([C@@H](C)CO)C[C@@H]2C)cc1 | -1.0
CC(C)NC(=O)N(C)C[C@H]1OCCCC[C@@H](C)Oc2ccc(NC(=O)Nc3ccccc3)cc2C(=O)N([C@@H](C)CO)C[C@H]1C | -0.3
COc1ccc(CN(C)C[C@H]2Oc3ccc(NC(=O)c4ccncc4)cc3CC(=O)N([C@H](C)CO)C[C@@H]2C)cc1 | 0.9
C[C@@H]1CN([C@@H](C)CO)C(=O)Cc2cc(NC(=O)Cc3ccccc3)ccc2O[C@H]1CN(C)Cc1ccc2c(c1)OCO2 | 1.1
COc1cc(/C=N\NC(=O)CCCCCCC(=O)NO)c(Br)cc1O | 0.2
C[C@@H]1CCCCO[C@@H](CN(C)S(=O)(=O)c2ccc(Cl)cc2)[C@H](C)CN([C@H](C)CO)C(=O)c2cc(NC(=O)CCC(F)(F)F)ccc2O1 | 0.1

# Continued:
Compound | A1 apoptosis 2
COc1ccc([Si](C)(C)[C@H]2[C@H](CCO)O[C@@]3(C(=O)N(Cc4cccc(NC(C)=O)c4)c4ccccc43)[C@@H]2C)cc1 | -0.5
Cc1cc(C(=O)Nc2cccc3c2O[C@@H](CN(C)C(=O)Nc2c(C)noc2C)[C@@H](C)CN([C@@H](C)CO)C3=O)n(C)n1 | 0.7
Cc1noc(C)c1S(=O)(=O)Nc1ccc2c(c1)C(=O)N([C@@H](C)CO)C[C@@H](C)[C@H](CN(C)C)OCCCC[C@@H](C)O2 | -1.1
C[C@@H]1CN([C@@H](C)CO)C(=O)c2cc(NS(C)(=O)=O)ccc2O[C@@H]1CN(C)Cc1ccc(C(=O)O)cc1 | -0.9
Cc1noc(C)c1NC(=O)N(C)C[C@@H]1OCCCC[C@H](C)Oc2ccc(NS(C)(=O)=O)cc2C(=O)N([C@@H](C)CO)C[C@H]1C | 0.0
C[C@@H]1CN([C@H](C)CO)C(=O)Cc2cc(NS(=O)(=O)c3cn(C)cn3)ccc2O[C@H]1CN(C)S(=O)(=O)c1ccc(Cl)cc1 | 0.7
O=C(N/N=C/c1ccccc1Br)c1ccccc1O | -10
COc1ccc(S(=O)(=O)N(C)C[C@@H]2Oc3ccc(NC(=O)C4CCCCC4)cc3C(=O)N([C@H](C)CO)C[C@@H]2C)cc1 | 0.0

# Additional structures
Compound | A1 apoptosis 2
Cc1noc(C)c1NC(=O)N(C)C[C@H]1Oc2ccc(NC(=O)C3CCCCC3)cc2C(=O)N([C@H](C)CO)C[C@@H]1C | 0.4
C[C@@H]1CN([C@H](C)CO)C(=O)c2cc(NC(=O)Cc3cn(C)c4ccccc34)ccc2O[C@H]1CN(C)Cc1ccc(C(F)(F)F)cc1 | -0.2
C[C@H](CO)N1C[C@H](C)[C@H](CN(C)C(=O)c2ccncc2)OCCCC[C@H](C)Oc2ccc(NS(=O)(=O)c3ccccc3)cc2C1=O | -0.5
COc1ccc(S(=O)(=O)Nc2ccc3c(c2)C(=O)N([C@@H](C)CO)C[C@H](C)[C@H](CN(C)C(=O)Cc2ccccc2)OCCCC[C@@H](C)O3)cc1 | 0.2
C[C@@H]1CN([C@H](C)CO)C(=O)c2cc(N(C)C)ccc2O[C@@H](C)CCCCO[C@@H]1CN(C)S(=O)(=O)c1cccs1 | 0.0
COc1ccc(S(=O)(=O)Nc2ccc3c(c2)CC(=O)N([C@@H](C)CO)C[C@H](C)[C@H](CN(C)S(=O)(=O)c2c(C)noc2C)O3)cc1 | 0.2
CN1CCN(C(=O)C2=C[C@H](C3CCCCC3)C[C@H](OCc3ccc(CO)cc3)O2)CC1 | 0.4
Cc1noc(C)c1NC(=O)N(C)C[C@@H]1Oc2ccc(NC(=O)Cc3cn(C)c4ccccc34)cc2C(=O)N([C@H](C)CO)C[C@H]1C | 0.3

# The listing continues:
Compound | A1 apoptosis 2
Cc1noc(C)c1NC(=O)N(C)C[C@H]1Oc2ccc(NS(=O)(=O)c3cn(C)cn3)cc2CC(=O)N([C@@H](C)CO)C[C@H]1C | -0.8
C[C@@H]1CN([C@@H](C)CO)C(=O)c2cccc(NC(=O)c3ccncc3)c2O[C@@H]1CN(C)C(=O)NC1CCCCC1 | 2.4
C[C@H]1CN([C@@H](C)CO)C(=O)Cc2cc(NC(=O)c3ccncc3)ccc2O[C@H]1CN(C)Cc1ccc(Cl)c(Cl)c1 | 0.2
COc1ccc(C#Cc2cnc3c(c2)C(=O)N([C@H](C)CO)C[C@H](C)[C@H](CN(C)C(=O)NC2CCCCC2)O3)cc1OC | -0.6
C[C@H](CO)N1C[C@H](C)[C@H](CN(C)C(=O)Nc2ccc(F)cc2)Oc2ccc(NS(C)(=O)=O)cc2C1=O | 0.9
C[C@H]1CN([C@@H](C)CO)C(=O)c2cc(NC(=O)CCC(F)(F)F)ccc2O[C@@H]1CN(C)S(=O)(=O)c1cccs1 | 0.1
COc1ccc(S(=O)(=O)Nc2cccc3c2O[C@@H](CN(C)S(=O)(=O)c2cn(C)cn2)[C@H](C)CN([C@@H](C)CO)C3=O)cc1 | -0.6
C[C@@H]1CN([C@@H](C)CO)C(=O)Cc2cc(NC(=O)C3CC3)ccc2O[C@H]1CN(C)C(=O)Nc1cccc2ccccc12 | 1.2

# Continuation:
Compound | A1 apoptosis 2
Cc1noc(C)c1S(=O)(=O)Nc1ccc2c(c1)CC(=O)N([C@@H](C)CO)C[C@@H](C)[C@H](CN(C)C(=O)Nc1ccc(C(F)(F)F)cc1)O2 | -0.5
C[C@H]1CN([C@@H](C)CO)C(=O)Cc2cc(NC(=O)Nc3ccc(F)cc3)ccc2O[C@@H]1CN(C)CC1CCCCC1 | -0.4
C[C@@H]1CCCCO[C@@H](CN(C)Cc2ccc(C(F)(F)F)cc2)[C@H](C)CN([C@H](C)CO)C(=O)c2cc(NC(=O)Nc3ccccc3)ccc2O1 | -0.1
C[C@@H]1CCCCO[C@@H](CN(C)Cc2ccncc2)[C@@H](C)CN([C@H](C)CO)C(=O)c2cc(NC(=O)Nc3ccccc3)ccc2O1 | -0.4
O=C(CCCCCCC(=O)Nc1ccccc1O)N/N=C/c1c[nH]c2ccccc12 | 1.2
CC(C)NC(=O)Nc1ccc2c(c1)CC(=O)N([C@H](C)CO)C[C@H](C)[C@H](CN(C)CC1CCCCC1)O2 | 0.5
C[C@H](CO)N1C[C@H](C)[C@@H](CN(C)C(=O)Nc2ccnc(N3CCOCC3)c2)OCc2cn(nn2)CCCC1=O | 1.1
C[C@@H]1CN([C@@H](C)CO)C(=O)c2cc(NC(=O)Nc3ccc(F)cc3)ccc2O[C@H]1CN(C)Cc1ccc(-c2ccccc2)cc1 | 0.1

# Compound activity as filed in PubChem BioAssay.
